Cruzain inh Det – cruzain (T. cruzi) inhibition with detergent. P25779. purified cruzain, Z-FR-AMC fluorescence, 0.01% Triton. Potency, µM, for inactives: max response, negative = inhibition, most hits filed as inhibitors. 0.43% of 200,000 active. AID 1478; active = well fitted curve in the direction sought with a large enough effect; inconclusive = small, poorly fitted or top-dose-only effect, or another doubt; inactive = no such curve, though single readings can be large; an effect the other way counts as inactive or inconclusive;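 note: plate controls were neutral wells for no effect and buffer without enzyme for full effect; nearly all actives have a fitted effect of over 40% in size; top concentration of the series not given in the record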
Target sequence (P25779 123-467 limits assumed): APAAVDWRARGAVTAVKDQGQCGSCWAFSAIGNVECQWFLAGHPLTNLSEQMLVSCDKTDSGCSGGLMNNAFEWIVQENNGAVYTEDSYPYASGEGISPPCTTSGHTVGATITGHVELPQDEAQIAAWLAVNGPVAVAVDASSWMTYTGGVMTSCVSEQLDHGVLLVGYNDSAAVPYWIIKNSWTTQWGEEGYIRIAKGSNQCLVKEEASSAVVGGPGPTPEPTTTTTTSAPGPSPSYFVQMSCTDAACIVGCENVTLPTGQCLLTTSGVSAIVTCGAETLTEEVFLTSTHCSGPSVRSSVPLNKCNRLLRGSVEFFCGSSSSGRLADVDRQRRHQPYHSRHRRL
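15 min RT preincubation of 1.5 nM cruzain with compound, then 2 uM Z-FR-AMC added; kinetic AMC fluorescence, 60 s delta. Triton X-100 0.01%, pH 5.5.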
Lassa entry inh – blocks Lassa virus binding to or entry into cells | AID 540256 | Potency, µM (highest dose often 37.9 µM), inactives show at the top dose activity change, negative = inhibition, hits mostly inhibitors | Lassa virus pseudotype entry inhibition, cell reporter; control for the full effect not named in the record | 1.2% of 300,000 active; active means well fitted inhibition curve with a large enough effect; inconclusive means small, poorly fitted or top-dose-only effect, or effect the other way; inactive means flat fitted curve, though single readings scatter; tested in HEK293 cells; note: % is set by controls: 0 for no effect and ±100 for the full control effect; nearly all actives have a fitted effect of over 50% in size; luciferase read-out
MARV entry inh – Marburg virus entry inhibition; Marburg virus pseudotyped entry inhibition, cell reporter; control for the full effect not named in the record; about a third of the inactives were read at about 46 µM; Potency, µM (series often up to 37.8 µM), for the others: top-dose activity change, negative = inhibition, actives largely listed as inhibitors; 1.8% of 300,000 active; AID 540276; active = well fitted inhibition curve with a large enough effect; inconclusive = small, poorly fitted or top-dose-only effect, or effect the other way; inactive = flat fitted curve, though single readings scatter; tested in HEK293 cells; about a fifth of its hits are not listed in these tables; note: % is set by controls: 0 for no effect and ±100 for the full control effect; luciferase read-out
RE007 growth inh – less growth of the S. pombe RE007 Vpr strain; S. pombe RE007 Vpr strain, BacTiter-Glo ATP luminescence, 24 h; control for the full effect not named in the record; Potency, µM (series often up to 92.2 µM), for inactives: at the top dose activity change, negative = less growth; 0.21% of 360,000 active; AID 651644; active = well fitted falling curve with a large enough effect; inconclusive = small, poorly fitted or top-dose-only effect; inactive = no such curve, though single readings can be large or run the other way;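 note: % is set by controls: 0 for no effect and ±100 for the full control effect; nearly all actives have a fitted effect of over 50% in size; the assay follows cell death caused by Vpr and the record does not say whether a fall means rescue or toxicity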
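Fission yeast RE007 carrying one integrated HIV-1 vpr copy, seeded at OD 0.01 in PMG+AL medium with 23 nL pinned compound. Grown 24 h at 30 degrees; viability read by BacTiter-Glo luminescence after 5 min.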
SARS PLP yeast – SARS-CoV PLP inhibition in yeast | S. cerevisiae expressing SARS-CoV PLpro, growth rescue; control for the full effect not named in the record | Potency, µM (highest dose often 32.9 µM), without a hit: at the highest dose activity, positive = growth rescue | 0.19% of 330,000 active; note: 0% is about no effect; nearly all actives have a fitted effect of over 55% in size; growth read by luminescence after 48 h
StopGo reporter – FMDV 2A StopGo reporter, luciferase signal; Potency, µM (series often up to 57.9 µM), for inactives: at the top dose signal change, negative = less light; 1.2% of 410,000 active; human cells with a luciferase reporter of 2A StopGo recoding; control for the full effect not named in the record; AID 1159524; active = well fitted falling curve with a large enough effect; inconclusive = small, poorly fitted or top-dose-only effect; inactive = no such curve, though single readings can be large or run the other way; tested in HEK293T cells; note: % is set by controls: 0 for no effect and ±100 for the full control effect; nearly all actives have a fitted effect of over 45% in size; luciferase light after 4 h
NS1 inh – influenza NS1 inhibition; S. cerevisiae slowed by influenza A NS1, growth recovery by OD600; Potency, µM (top dose mostly 46.1 µM), inactives show top-dose activity, positive = more growth; 0.4% of 270,000 active; AID 2326; note: actives are rising curves; nearly all actives have a fitted effect of over 50% in size
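Recovery from NS1-induced slow growth read by OD600 in budding yeast switched to galactose assay medium (pH 6.0, -URA) at 1:100 dilution. Compound 23 nl per well; the matching strain lacking NS1 serves as control.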
Cruzain noTriton – cruzain (T. cruzi) inhibition without detergent; P25779; purified cruzain, Z-FR-AMC fluorescence, no detergent; Potency, µM, inactives show max response, negative = inhibition, usual class: inhibitors; 2.3% of 200,000 active; active = well fitted curve in the direction sought with a large enough effect; inconclusive = small, poorly fitted or top-dose-only effect, or another doubt; inactive = no such curve, though single readings can be large; an effect the other way counts as inactive or inconclusive;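 note: plate controls were enzyme without inhibitor for no effect and buffer without enzyme for full effect; nearly all actives have a fitted effect of over 40% in size; top concentration of the series not given in the record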
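Purified cruzain at 1.5 nM, pre-incubated 15 min with compound at room temperature in 100 mM sodium acetate pH 5.5, 5 mM DTT, 0.00005% Triton X-100. Reaction started with 2 uM Z-FR-AMC; AMC fluorescence increase over 60 s gives rate.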
* = called active by the depositor; u = inconclusive; x = not tested or not shown; & = joins results of further samples; [ ] = another dose, or the depositor's remark. Unless noted, calls come from the whole dose curve; as a rule, active means well fitted rising curve with a large enough effect; inconclusive means small, poorly fitted or top-dose-only effect; inactive means no such curve, though single readings can be large or run the other way. Potency is the fitted concentration of half-maximal effect.

Molecule	Cruzain inh Det	Lassa entry inh	MARV entry inh	RE007 growth inh	SARS PLP yeast	StopGo reporter	NS1 inh	Cruzain noTriton
CCOc1ccc(S(=O)(=O)N2CCN(Cc3ccc4c(c3)OCO4)CC2)cc1Cl	x	1%	u	-19%	-2%	-18%	-40%	x
CCCCCCC(=O)c1c(O)n(-c2ccccc2OC)c(=O)[nH]c1=O (tested in a mixture with another compound)	x	u	2%	4%	1%	-7%	-32%	x
CCOc1ccc(NC(=O)CNC(=O)c2nn(-c3ccc(OC)cc3)c(=O)c3ccccc23)cc1	x	x	-21%[46.1 µM]	-6%	2%	-19%	26%	x
CN1C(=O)CC(N2CCN(C(c3ccccc3)c3ccccc3)CC2)C1=O (stereo not drawn)	2.6%	-16%	18%	-19%	-1%	1%	6%	1%
CCOC(=O)N1CCN(Cc2nc3c(c(=O)n(C)c(=O)n3C)n2Cc2ccccc2C)CC1	4.4%	-12%	u	-7%	6%	7%	-9%	u
O=C(CNC(=O)c1cccs1)NC1=NCCS1	5.3%	u	8%	-2%	2%	53%[activator]	6%	-7%
Nc1cc(=O)[nH]c(=O)n1Cc1ccco1	4.4%	5%	4%	20%	1%	11%	28%	-3%
Cc1cc(C)nc(NC(=NCCc2c[nH]c3ccccc23)NC(=O)Nc2ccc(Cl)c(Cl)c2)n1	-2.4%	-22%	u	-23%	-10%	-23%	24%	7.9µM*

Whole records, looked up by structure. Values in the order: Cruzain inh Det | Lassa entry inh | MARV entry inh | RE007 growth inh | SARS PLP yeast | StopGo reporter | NS1 inh | Cruzain noTriton
CN1C(=O)CC(N2CCN(C(c3ccccc3)c3ccccc3)CC2)C1=O (stereo not drawn) is entered as 2.6% | -16% | 18% | -19% | -1% | 1% | 6% | 1%
CCOc1ccc(S(=O)(=O)N2CCN(Cc3ccc4c(c3)OCO4)CC2)cc1Cl is entered as x | 1% | u | -19% | -2% | -18% | -40% | x

Further structures follow:
Molecule	Cruzain inh Det	Lassa entry inh	MARV entry inh	RE007 growth inh	SARS PLP yeast	StopGo reporter	NS1 inh	Cruzain noTriton
N#Cc1c(C(F)(F)F)cc(-c2ccccc2)nc1SCC(=O)Nc1sc2c(c1C#N)CCC2	-4.1%	13%	10%	-9%	1%	u	6%	u
CCS(=O)(=O)Nc1ccc(C2=NN(S(C)(=O)=O)C(c3cccs3)C2)cc1 (stereo not drawn)	x	u	-4%[46.1 µM]	5%	-1%	31%[activator]	x	x
CC1CN(C2CCCCC2)c2nc3c(c(=O)n(C)c(=O)n3C)n2C1 (stereo not drawn)	1.6%	11%	1%[46.1 µM]	-3%	2%	-17%	2%	8%
COCCNc1nc2nonc2nc1N1CCCC1c1nccs1 (stereo not drawn)	x	13%[46.1 µM]	-5%[46.1 µM]	-3%	1%	1%	7%	x
NS(=O)(=O)c1ccc(NCc2c(F)cccc2Cl)cc1	2.2%	0%	3%	4%	2%	-22%	9%	-1%
CC(Oc1ccccc1)C(=O)Nc1nc(-c2ccccn2)cs1 (stereo not drawn)	x	-19%	-14%[46.1 µM]	u	-11%	-21%	x	x
O=c1[nH]c(N2CCCCCC2)nc2ncn(Cc3ccccc3)c12	x	x	x	2%	0%	10%	2%	x
Cc1cc(N2C(=O)C3C4C=CC(C4)C3C2=O)ccc1Br (stereo not drawn)	0.6%	-15%	5%	-11%	-6%	u	-5%	8%
Cc1ccc(C(=O)NNC(=O)Cc2cccs2)cc1	-1.2%	5%	23%	22%	6%	12%	10%	7%
CC(C)(C)SC(=O)C[C@@H]1NS(=O)(=O)OC2CCCCC21 (stereo partly drawn)	x	x	x	9%	4%	u	8%	x
CCC(C)NC(=O)c1ccc2c(c1)N(Cc1cccc(Cl)c1)C(=O)c1ccccc1S2=O (stereo not drawn)	-5.4%	u	x	x	x	-12%	x	-7%
CCOC(=O)N1CCc2[nH]c3ccc(C)cc3c2C1	x	u	u	-23%	1%	u	12%	x
O=C(NCc1ccc(Cl)cc1)c1cnc(N2CCCCC2)c2ccccc12	-12%	19%[46.1 µM]	x	x	x	-20%	x	-18%
O=C(Nc1nc2ccccc2[nH]1)C12CC3CC(CC(C3)C1)C2	-11%	u	u	-10%	-23%	u	0%	2%
O=C(CN(CCc1ccccc1)C(=O)CNS(=O)(=O)c1ccccc1)NCC1CCCO1 (stereo not drawn)	4.7%	u	16%&16%[46.1 µM]	-14%	-5%	-13%	-5%	4%
Cc1cc(NC(=O)CSc2nc3ccccc3n2CCC#N)no1	x	-15%	-15%[46.1 µM]	-6%	3%	-8%	x	x
Cc1ccc(S(=O)(=O)N2CCN(CC(=O)N/N=C/c3ccc(C)o3)CC2)cc1	1.2%	9%	5%	-5%	u	-8%	-9%	1%
CCN1CCN(c2cc(C)c3cc(NC(=S)N4CCOCC4)ccc3n2)CC1	x	x	x	-11%	2%	30%[activator]	-6%	x
CCN(CC)Cc1c(-c2ccccc2)[nH]c2ccc(C)cc2c1=O	0.4%	-13%	u	-17%	24%	14%	4%	-4%
COC(=O)N1C(=O)[C@](c2ccc(Cl)cc2)(C(C)C)N1C(=O)OC	x	x	x	-5%	-7%	-9%	-15%	x
Cc1ccc(C(C)NC(=O)Cn2nc(C)c([N+](=O)[O-])c2C)cc1 (stereo not drawn)	-3.9%	-13%	13%	-8%	2%	-10%	12%	-1%
COc1ccccc1C(C)NS(=O)(=O)c1ccc(Cl)nc1 (stereo not drawn)	x	10%	1%	-18%	0%	-9%	x	x
CCN(CC)C(=O)c1cccc(NC(=O)c2ccc3c(=O)n4c(nc3c2)CCC4)c1	x	32%	12%	-3%	-1%	-11%	x	x
COc1ccc(Cl)cc1NC(=O)COC(=O)/C=C/c1c(C)nn(C2CCS(=O)(=O)C2)c1Cl (stereo not drawn)	0.7%	-9%	3%	0%	u	-9%	8%	u
CC(=O)c1ccc(OC(NC(=O)Cc2ccccc2)C(Cl)(Cl)Cl)cc1 (stereo not drawn)	-0.3%	-2%	13%	-15%	3%	x	-9%	-4%
O=C(NCC1CCCO1)C(=O)NCC1CCCN1S(=O)(=O)c1ccccc1 (stereo not drawn)	x	3%	u	8%	-3%	-15%	x	x
C/C(=N/NC(=O)CNC(=O)c1ccccc1F)c1ccc2c(c1)CCCC2	x	14%	u	4%	-2%	-4%	-4%	x
Cc1ccc(N2CC(C(=O)N/N=C/c3cccc([N+](=O)[O-])c3)CC2=O)cc1 (stereo not drawn)	-0.2%	5%	10%	-1%	-3%	-16%	4%	4%
CC1CCCCN1S(=O)(=O)c1ccc(S(=O)(=O)N(Cc2ccccc2)Cc2ccco2)cc1 (stereo not drawn)	-1.3%	u	u	-6%	-5%	x	18%	-16%
CC=CC1OCC(CC)C(CCC)O1 (stereo not drawn)	x	u	6%	-12%	x	-14%	x	x
COc1cccc(CN(C)CC(=O)NCc2ccc(C)cc2)c1	x	-25%[46.1 µM]	0%[46.1 µM]	8%	0%	-9%	-1%	x
CC(C)(C)NC(=O)NC(=O)COC(=O)c1cccc(F)c1	-4.2%	-1%	41%	-19%	1%	12%	6%	-7%
O=C(CCCc1ccccc1)N1CCN(C2CCCCC2)CC1	x	x	x	5%	-1%	0%	12%	x
O=C(NCCC1=CCCCC1)C(=O)NCC(c1ccco1)N1CCN(c2ccccc2)CC1 (stereo not drawn)	0.7%	u	-4%	-23%	8%	-16%	-16%	-10%
COc1cc2c(cc1O)C(Cc1ccc(O)cc1)[N+](C)([O-])CC2 (stereo not drawn)	x	x	x	-10%	-2%	-23%	1%	x
CCn1c(=O)n(CC)c2cc(N3CCCC3)c(NC(=O)c3ccccc3OC)cc21	x	u	u	-9%	-25%	-29%	-12%	x
CCOC(=O)c1sc(NC(=O)c2cc3n(n2)C(C(F)(F)F)CC(c2ccccc2)N3)c(C(=O)OCC)c1C (stereo not drawn)	1.6%	9%	4%	-1%	-14%	x	-6%	u
Cc1ccc(C)c(SCC(=O)OCC(=O)c2ccco2)c1	-18%	10%	9%	-1%	-5%	x	-11%	-13%
CCCCC1(CCO)C(=O)NC(=S)NC1=O	x	-14%[46.1 µM]	19%[46.1 µM]	-6%	x	-4%	x	x
COc1ccc(Cl)cc1N=Cc1c(O)c2ccccc2oc1=O	x	-2%	0%	-6%	5%	20%	1%	x
COc1ccc(CNc2oc(C)nc2C#N)cc1	0.5%	0%	0%	6%	3%	-1%	-2%	-5%
Cc1cc(-c2ccc(C)c(S(=O)(=O)N3CCCC(C)C3)c2)on1 (stereo not drawn)	-2.2%	-20%[46.1 µM]	x	x	x	-17%	x	8%
CC(=O)N1CCN(c2ccccc2NC(=O)c2ccco2)CC1	x	x	x	-4%	-1%	-30%	4%	x
CC(CC(=O)Nc1nc2ccccc2[nH]1)c1ccccc1 (stereo not drawn)	-3.6%	u	u	-17%	-8%	0%	-4%	-5%
CCCc1ccc(-c2ccc(/C=C/C(=O)O)cc2)nc1	u	0.46µM*	0.23µM*	8%	-13%	0%	-31%	0%
O=C(Nc1cc(NC(=O)c2ccccc2Cl)ccc1Cl)c1ccccc1	-5.0%	-7%[46.1 µM]	x	x	x	0%	x	5%
CCn1c(SCC(=O)NCc2ccc3c(c2)OCO3)nnc1-c1c[nH]c2ccccc12	6.4%	-12%	-20%&-20%	20%	-3%	-26%	-13%	6%
O=C(Nc1cccc(C(=O)O)c1)/C(=C/c1ccc([N+](=O)[O-])cc1)NC(=O)c1ccccc1	x	x	x	6%	-1%	-17%	12%	x
CC(=O)N(\C=C/C=C/C=C1\Sc2ccccc2C1=O)c1ccccc1	x	-14%	u	-6%	2%	-11%	x	x
O=C(CSc1nnnn1C1CCCCC1)N1CCN(C(=O)c2ccco2)CC1	x	-1%	u	-7%	-1%	-10%	-1%	x
O=C(CSc1nnc(-c2ccco2)n1-c1ccccc1)NCC1CCCO1 (stereo not drawn)	x	-2%	9%	10%	2%	-19%	2%	x
